Bioassay records from PubChem.
PINK1 modulator – PINK1 expression modulation; 410,000 compounds, 0.2% hits; PINK1 immunofluorescence, high-content cytometry, 24 h; Potency, µM (titrated, usually from 76.6 µM), without a hit: at the top dose activation (PINK1 increase), actives largely listed as activators; AID 624263; active = well fitted activation curve with a large enough effect; inconclusive = small, poorly fitted or top-dose-only effect; inactive = flat fitted curve, though single readings scatter; cell line not stated here;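 note: % of control where 0% means no effect; nearly all actives have a fitted effect of over 65% in size; a mitochondrial uncoupler was the plate control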
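Stable cell line treated 24 h with compounds at 5 concentrations (CCCP controls), then fixed and immunostained for PINK1 plus nuclear and cell stains; PINK1 immunofluorescence quantified by laser-scanning microplate cytometry.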
Sfp inh – inhibitors of Bacillus subtilis Sfp phosphopantetheinyl transferase | Q9F4F7 | Biochemical Sfp PPTase activity, qHTS | Potency, µM, inactives show max response, negative = inhibition, most hits filed as inhibitors | 310,000 compounds, 3.5% hits | AID 1490; active = well fitted inhibition curve with a large enough effect; inconclusive = small, poorly fitted or top-dose-only effect, or another doubt; inactive = no such curve, though single readings can be large or run the other way;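 note: the enzyme is Sfp with the accession as filed and its product quenches rhodamine fluorescence; 0% = enzyme reaction without inhibitor and -100% = no enzyme wells; top concentration of the series not given in the record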
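With Hepes-Na pH 7.6 buffer containing 10 mM MgCl2, Sfp (15 nM) modified BHQ-2-YbbR (12.5 uM) using rhodamine-CoA (5 uM). Two reads 30 minutes apart at 525/598 nm yielded each well's rate.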
* = called active by the depositor; ? = inconclusive. Potency is the fitted concentration of half-maximal effect.

canonical_smiles	PINK1 modulator	Sfp inh
Cc1nc2cnc(OCc3ccccc3)nc2n(CCC#N)c1=O	-0.1%	2%
O=C(Nc1cccc(F)c1)N1CC[C@@]2(CCCN(S(=O)(=O)c3ccccc3)C2)C1	0.3%	4%
COCCNc1nc(-c2ccccc2C)nc2ccccc12	0.1%	5%
COCCn1c(=O)cnc2cnc(Oc3ccc(OC)cc3)nc21	-0.2%	-12%
COc1ccc(-n2c(=O)c(-c3cn(C)c4ccccc34)nc3cnc(N4CCNCC4)nc32)cc1	7.4%	-26%
Nc1ncnc2nc(Cl)[nH]c12	0.5%	-20%
O=C(c1csnn1)N1CCC2(CC1)CN(c1ccccc1)C2	0.7%	8%
CC(=O)OCC1OC(n2cnc3c(=O)[nH]cnc32)C(OC(C)=O)C1OC(C)=O (stereo unspecified)	-0.3%	6%
O=C(c1ccco1)N1CCC2(CC1)CN(c1ccccc1)C2	-1.0%	-25%
Cc1ccccc1-c1cncnc1NCc1cccs1	0.8%	2%
c1ccc(CNc2ncncc2-c2ccoc2)cc1	0.3%	-7%
COc1ccc(NC(=O)N2CCC3(CC2)CCN(C(=O)c2ccncc2)CC3)cc1	1.6%	13%
c1cncc(-c2cncnc2NC2CCNCC2)c1	-0.2%	-6%
N#Cc1ccc(CN2CCCC3(CCN(C(=O)c4ccncc4)CC3)C2)cc1	0.4%	-3%
S=c1ccss1	-0.4%	?
O=C(c1cnccn1)N1CCC2(CCN(Cc3nccs3)CC2)CC1	0.6%	12%
CC(C)CN1CCCC2(CCN(S(=O)(=O)c3ccccc3)CC2)C1	1.1%	14%
CCOC(=O)C(CCc1ccccc1)NC(C)C(=O)N1C(C(=O)O)CC2CCCC21 (stereo unspecified)	-0.3%	14%
Cc1noc(C)c1-c1cncnc1N(C)Cc1ccco1	1.7%	-27%
CCNc1ncc2nc(-c3cn(C)c4ccccc34)c(=O)n(Cc3cccc(OC)c3)c2n1	4.1%	4%
O=c1c(CCc2ccccc2)nc2cncnc2n1C1CC1	-0.7%	18%
COc1ccc(B(O)O)cc1	-0.7%	18%
COc1ccc(Oc2ncc3nc(-c4cccs4)c(=O)n(C)c3n2)cc1	0.2%	-16%
CC(C)NC(=O)N1CC2(CCN(C(=O)c3ccncc3)CC2)C1	0.7%	12%
COCCn1c(=O)c(-c2ccc(F)cc2)nc2cnc(Oc3ccc(OC)cc3)nc21	0.0%	5%
CN(C)c1ccc(-c2nc(NCCN3CCOCC3)c3ccccc3n2)cc1	0.6%	?
CN(C)c1ccc(-c2cc(NCc3ccccc3)ncn2)cc1	0.2%	-10%
COCCn1c(=O)c(CCc2ccccc2)nc2cnc(N3CCNCC3)nc21	0.3%	23%
O=C(Nc1cccc(F)c1)N1CC2(CCN(C(=O)c3csnn3)CC2)C1	-0.2%	-5%
CN(C)Cc1ccccc1-c1ccc2ncnc(NCc3cccs3)c2c1	-0.3%	8%
COc1cccc(-c2nccc(NCCc3c[nH]c4ccc(OC)cc34)n2)c1	0.7%	-20%
COc1ccccc1-c1ccc2ncnc(NCCNC(C)=O)c2c1	1.2%	13%
COc1ccc(C(=O)N2CCC[C@@]3(CCN(Cc4ccccc4OC)C3)C2)cc1	-0.6%	6%
COc1ccccc1CNc1ccnc(-c2ccc3c(c2)OCO3)n1	-1.6%	50µM*
O=C(Oc1ccccc1)N1CCC2(CCCN(c3cccc(-c4ccccc4)c3)C2)CC1	-0.3%	7%
COCCn1c(=O)c(-c2ccc(OC)cc2)nc2cnc(Nc3ccccc3)nc21	3.9%	20%

Not a retest: an excerpt of the list.
canonical_smiles	PINK1 modulator	Sfp inh
COc1ccccc1CNc1ccnc(-c2ccc3c(c2)OCO3)n1	-1.6%	50µM*
O=C(Oc1ccccc1)N1CCC2(CCCN(c3cccc(-c4ccccc4)c3)C2)CC1	-0.3%	7%
COCCn1c(=O)c(-c2ccc(OC)cc2)nc2cnc(Nc3ccccc3)nc21	3.9%	20%

(cont.)
canonical_smiles	PINK1 modulator	Sfp inh
COc1ccc(-n2c(=O)c(CCc3ccccc3)nc3cnc(N4CCNCC4)nc32)cc1	-0.2%	?
N#CCCn1c(=O)c(-c2ccc(Cl)cc2)nc2cnc(N3CCNCC3)nc21	4.7%	-19%
Cc1ccccc1-c1nc(NCc2cccs2)c2ccccc2n1	0.8%	5%
CC(=O)N1CCC2(CCN(Cc3ccncc3)CC2)CC1	-0.7%	19%
CC1(C)C2(Cl)C(Cl)C(Cl)C(Cl)(C(Cl)Cl)C1(Cl)C2Cl (stereo unspecified)	0.6%	5%
CN(C)c1ncc2nc(-c3cccs3)c(=O)n(C)c2n1	-0.1%	4%
COc1ccc(-c2nc3cnc(N(C)C)nc3n(-c3ccccc3)c2=O)cc1	7.0%	14%
CN1CCN(c2ncnc3ccc(-c4ccccc4C(F)(F)F)cc23)CC1	0.7%	?
Cc1ccccc1-c1cc(NCc2ccccc2)ncn1	-0.8%	18%
c1ncc(-c2ccoc2)c(NC2CC2)n1	-0.2%	79µM*
COc1ccc(NC(=O)N2CCCC3(CCNCC3)C2)cc1	-0.6%	-3%
CN(Cc1ccco1)c1ncnc2ccc(-c3ccccc3C(F)(F)F)cc12	-0.4%	?
COc1ccccc1CN1CCC2(CC1)CCN(C(=O)c1ccco1)CC2	0.5%	2%
N#CCCn1c(=O)c(-c2ccccc2)nc2cnc(Oc3cccc(Cl)c3)nc21	2.6%	-3%
COc1ccc2[nH]cc(CCNc3ncnc4ccc(-c5cccc(C#N)c5)cc34)c2c1	1.4%	-22%
N#CCCn1c(=O)c(CCc2ccccc2)nc2cnc(Oc3cccc(Cl)c3)nc21	0.4%	10%
COc1ccc(Oc2ncc3nc(C)c(=O)n(Cc4cccc(OC)c4)c3n2)cc1	0.5%	6%
COc1ccc(Nc2ncc3nc(-c4cccs4)c(=O)n(Cc4cccc(OC)c4)c3n2)cc1	2.5µM*	-1%
COc1cc2c(cc1C(F)(F)F)N(C(=O)Nc1cc(F)cc(-c3cccnc3)c1)CC2	8.7%	13%
CN(C)c1ccc(-c2ccc3ncnc(NCc4ccccc4)c3c2)cc1	6.2%	-20%
COc1ccccc1-c1cncnc1NCCNC(C)=O	-0.4%	79µM*
COCCn1c(=O)c(CCc2ccccc2)nc2cnc(OCc3ccccc3)nc21	0.5%	7%
FC(F)(F)c1ccccc1-c1cncnc1NCCc1cnc[nH]1	-0.8%	12%
Cc1ccccc1-c1nccc(-n2ccnc2)n1	-0.1%	56µM*
OCC1OC(n2cnc3c(Cl)nc(Cl)nc32)C(O)C1O (stereo unspecified)	4.1%	4%
COCCNc1ccnc(-c2c(C)noc2C)n1	1.1%	25%
O=C(c1ccco1)N1CCC2(CC1)CCN(c1ccncc1)CC2	0.0%	15%
COc1cccc(Cn2c(=O)c(CCc3ccccc3)nc3cnc(N4CCOCC4)nc32)c1	0.3%	23%
O=C(c1ccco1)N1CCC[C@@]2(CCN(Cc3nccs3)C2)C1	-0.6%	13%
O=C(Nc1cccc(F)c1)N1CC2(CCN(C(=O)c3cccc(F)c3)CC2)C1	-0.1%	10%
COCCn1c(=O)c(-c2ccc(OC)cc2)nc2cnc(OCc3ccccc3)nc21	1.1%	29%
N#Cc1cccc(NC(=O)N2CC[C@@]3(CCCN(C(=O)c4cccc(F)c4)C3)C2)c1	-0.3%	-4%
O=c1c(-c2ccccc2)nc2cnc(Oc3ccccc3)nc2n1Cc1cccs1	0.5%	16%
Cc1noc(C)c1-c1nccc(N(C)Cc2ccco2)n1	0.4%	?

Gathered by group, the entries above with sulfur
canonical_smiles	PINK1 modulator	Sfp inh
O=C(Nc1cccc(F)c1)N1CC[C@@]2(CCCN(S(=O)(=O)c3ccccc3)C2)C1	0.3%	4%
O=C(c1csnn1)N1CCC2(CC1)CN(c1ccccc1)C2	0.7%	8%
Cc1ccccc1-c1cncnc1NCc1cccs1	0.8%	2%
S=c1ccss1	-0.4%	?
O=C(c1cnccn1)N1CCC2(CCN(Cc3nccs3)CC2)CC1	0.6%	12%
CC(C)CN1CCCC2(CCN(S(=O)(=O)c3ccccc3)CC2)C1	1.1%	14%
COc1ccc(Oc2ncc3nc(-c4cccs4)c(=O)n(C)c3n2)cc1	0.2%	-16%
O=C(Nc1cccc(F)c1)N1CC2(CCN(C(=O)c3csnn3)CC2)C1	-0.2%	-5%
CN(C)Cc1ccccc1-c1ccc2ncnc(NCc3cccs3)c2c1	-0.3%	8%
Cc1ccccc1-c1nc(NCc2cccs2)c2ccccc2n1	0.8%	5%
CN(C)c1ncc2nc(-c3cccs3)c(=O)n(C)c2n1	-0.1%	4%
COc1ccc(Nc2ncc3nc(-c4cccs4)c(=O)n(Cc4cccc(OC)c4)c3n2)cc1	2.5µM*	-1%
O=C(c1ccco1)N1CCC[C@@]2(CCN(Cc3nccs3)C2)C1	-0.6%	13%
O=c1c(-c2ccccc2)nc2cnc(Oc3ccccc3)nc2n1Cc1cccs1	0.5%	16%

Only part of the results is shown; rates above refer to the full screens.
